DUX4 txn inh – blocks DUX4-driven transcriptional activation. activity change, negative = inhibition, % (test concentration not listed). 293T-iDUX4 ZSCAN4-Gaussia luciferase reporter, 24 h; hits give low values. actives 0.8% (n = 37,000);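 active means -10% or lower and over 25 points stronger than a control reporter; inconclusive means -10% or lower with a smaller gap; inactive means above -10%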;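 further: 0% = median of neutral control wells and -100% = median of positive control wells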
DUX4 txn inh difference – recorded beside DUX4 txn inh, whose call it bears; Gaussia minus Italica difference, %; measured here: selective DUX4 reporter inhibition;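 worked out from the two reporters; negative = selective loss of the DUX4 reporter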
DUX4 txn inh control – recorded beside DUX4 txn inh, whose call it bears; activity change, negative = inhibition, %; measured here: Italica tet-on control reporter;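 0 = neutral control and -100 = positive control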
An asterisk follows results filed as active; ? = inconclusive; / = no result given.

SMILES | DUX4 txn inh | DUX4 txn inh difference | DUX4 txn inh control
CC(C)CC#Cc1ccc2c(c1)O[C@H](CN(C)C(=O)Cc1ccncc1)[C@@H](C)CN([C@H](C)CO)S2(=O)=O | -3.2 | -7.5 | 4.3
O=C(c1cccnc1)N1C[C@@H]2[C@H](c3ccccc31)[C@@H](CO)N2Cc1ccc2c(c1)OCO2 | -0.2 | -4.1 | 3.9
CCC(=O)N1CC(=O)N2[C@H](C1)[C@H](c1ccc(-c3cccnc3)cc1)[C@@H]2CO | 21.3 | 8.2 | 13.1
COc1ccc2c3c(n(C)c2c1)[C@@H](CO)N(C(=O)Cc1ccccc1)CC31CCN(C(C)=O)CC1 | 16.1 | 22.3 | -6.1
CC(C)NC(=O)N1[C@@H](C#N)[C@@H](c2ccc(C#CC3CCCCC3)cc2)[C@@H]1CO | -3.1 | -0.4 | -2.8
CCCN1[C@H](C(=O)NC2CCCC2)[C@@H](CO)[C@@H]2Cn3c(ccc(-c4cccnc4)c3=O)[C@@H]21 | 3.4 | 2.8 | 0.6
Cc1noc(C)c1NC(=O)N(C)C[C@@H]1Oc2c(NC(=O)c3nc4ccccc4s3)cccc2C(=O)N([C@H](C)CO)C[C@H]1C | -1.2 | 1.5 | -2.8
C[C@H](O)C#Cc1ccc2c(c1)O[C@@H](CN(C)C(=O)C1CCCCC1)[C@@H](C)CN([C@H](C)CO)S2(=O)=O | -5.2 | -0.5 | -4.7
N#C[C@H]1[C@@H](c2ccc(C#CC3(O)CCCC3)cc2)[C@@H](CO)N1C(=O)C1CCCC1 | 2.0 | 0.2 | 1.7
OC[C@H]1[C@@H](c2ccccc2)C2(CN(Cc3cccnc3)C2)N1Cc1ccncc1 | 5.3 | 6.4 | -1.0
COCC(=O)N1CCC2(CC1)CN(Cc1cc(F)ccc1F)[C@@H](CO)c1c2c2ccc(OC)cc2n1C | -0.1 | 3.3 | -3.4
CN(C)C(=O)c1ccc(-c2ccc([C@@H]3[C@H]4CN(C(=O)C5CC5)CCCCN4[C@H]3CO)cc2)cc1 | 9.0 | 8.0 | 0.9
COc1ccccc1NC(=O)N1C[C@H]2[C@@H](c3ccccc31)[C@@H](CO)N2Cc1ccc2c(c1)OCO2 | 3.7 | -0.2 | 3.8
CNC[C@@H]1Oc2ncc(C#CC3(O)CCCC3)cc2C(=O)N([C@H](C)CO)C[C@@H]1C | 1.4 | -6.0 | 7.4
CCCNC(=O)N1[C@@H]2CN(C(=O)Nc3cccc(Cl)c3)c3ccccc3[C@@H]2[C@@H]1CO | 1.0 | -7.4 | 8.4
C[C@@H]1CN([C@H](C)CO)C(=O)c2cc(NS(=O)(=O)c3cn(C)cn3)ccc2O[C@@H](C)CCCCO[C@H]1CN(C)C(=O)Nc1ccc(C(F)(F)F)cc1 | -1.7 | -5.6 | 3.9
O=C(C[C@@H]1CC[C@@H](NC(=O)Nc2ccc(C(F)(F)F)cc2)[C@H](CO)O1)NCc1cccc(F)c1 | ? | / | /
CO[C@@H]1CC[C@H]2CCN(C)C(=O)[C@H](C)N(C)C(=O)c3cccc(C#N)c3OC[C@H]1O2 | -0.1 | -4.1 | 4.0
CCCNC(=O)Nc1ccc2c(c1)OC[C@@H](C)N(C(=O)c1ccccc1F)C[C@H](C)[C@H](OC)CN(C)C2=O | 4.0 | 1.0 | 2.9
O=C(NCC(F)(F)F)[C@H]1[C@H](CO)[C@H]2Cn3c(cccc3=O)[C@H]2N1C(=O)C1CC1 | 2.4 | -0.6 | 3.0
CNC[C@H]1OCCCC[C@@H](C)Oc2ccc(NC(=O)Nc3ccc(OC)cc3)cc2C(=O)N([C@H](C)CO)C[C@H]1C | -1.0 | -1.9 | 0.9
C[C@@H]1CN([C@H](C)CO)C(=O)Cc2cc(NC(=O)Nc3ccc(F)cc3)ccc2O[C@H]1CN(C)S(C)(=O)=O | -2.9 | -3.4 | 0.5
COc1ccc2c3c(n(C)c2c1)[C@H](CO)N(C(=O)Nc1ccc(F)cc1)CC31CCN(Cc2ccccn2)CC1 | ? | / | /
CCC(=O)N1CCCCN2[C@H](CO)[C@@H](c3ccc(-c4cccc(C(=O)N(C)C)c4)cc3)[C@@H]2C1 | 10.8 | 19.8 | -9.0
O=C(C[C@@H]1C=C[C@@H](NS(=O)(=O)c2cccc(F)c2)[C@H](CO)O1)N1CCCCC1 | -2.5 | -3.2 | 0.7

Three of the entries above in order of the DUX4 txn inh control value, rising:
SMILES,DUX4 txn inh,DUX4 txn inh difference,DUX4 txn inh control
O=C(C[C@@H]1C=C[C@@H](NS(=O)(=O)c2cccc(F)c2)[C@H](CO)O1)N1CCCCC1,-2.5,-3.2,0.7
CNC[C@H]1OCCCC[C@@H](C)Oc2ccc(NC(=O)Nc3ccc(OC)cc3)cc2C(=O)N([C@H](C)CO)C[C@H]1C,-1.0,-1.9,0.9
CC(C)CC#Cc1ccc2c(c1)O[C@H](CN(C)C(=O)Cc1ccncc1)[C@@H](C)CN([C@H](C)CO)S2(=O)=O,-3.2,-7.5,4.3

Fetched one by one from the entries so far:
SMILES | DUX4 txn inh | DUX4 txn inh difference | DUX4 txn inh control
O=C(C[C@@H]1CC[C@@H](NC(=O)Nc2ccc(C(F)(F)F)cc2)[C@H](CO)O1)NCc1cccc(F)c1 | ? | / | /
COCC(=O)N1CCC2(CC1)CN(Cc1cc(F)ccc1F)[C@@H](CO)c1c2c2ccc(OC)cc2n1C | -0.1 | 3.3 | -3.4
CO[C@@H]1CC[C@H]2CCN(C)C(=O)[C@H](C)N(C)C(=O)c3cccc(C#N)c3OC[C@H]1O2 | -0.1 | -4.1 | 4.0
O=C(c1cccnc1)N1C[C@@H]2[C@H](c3ccccc31)[C@@H](CO)N2Cc1ccc2c(c1)OCO2 | -0.2 | -4.1 | 3.9
Cc1noc(C)c1NC(=O)N(C)C[C@@H]1Oc2c(NC(=O)c3nc4ccccc4s3)cccc2C(=O)N([C@H](C)CO)C[C@H]1C | -1.2 | 1.5 | -2.8

Remaining list, next part.
SMILES | DUX4 txn inh | DUX4 txn inh difference | DUX4 txn inh control
CC(=O)N1CCCCN2[C@@H](CO)[C@H](c3ccc(-c4ccncc4)cc3)[C@@H]2C1 | 22.9 | 10.8 | 12.1
CC(C)[C@H]1C/C=C\CCNC(=O)[C@@H](C)CC(=O)N1 | 2.8 | 0.7 | 2.1
O=C(Nc1cc(F)ccc1F)N1CC(=O)N2[C@@H](CO)[C@H](c3ccc(/C=C/c4ccccc4)cc3)[C@@H]2C1 | -5.9 | 0.6 | -6.6
CN(C)C(=O)[C@H]1[C@H](CO)[C@H]2Cn3c(ccc(-c4cccnc4)c3=O)[C@H]2N1Cc1ccccc1F | -2.5 | 1.0 | -3.5
COc1ccc(S(=O)(=O)N(C)C[C@H]2OCCCC[C@@H](C)Oc3ccc(NC(=O)Nc4cccc5ccccc45)cc3C(=O)N([C@@H](C)CO)C[C@H]2C)cc1 | 0.3 | 19.4 | -19.1
COc1ccc2c3c([nH]c2c1)[C@@H](CO)N(C)CC31CN(C(=O)NC(C)C)C1 | 24.0 | 12.4 | 11.6
C[C@H](CO)N1C[C@H](C)[C@@H](CN(C)S(C)(=O)=O)Oc2ncc(C#Cc3cccnc3)cc2C1=O | 3.8 | -1.6 | 5.3
CN(C)C(=O)c1ccc(-c2ccc([C@@H]3[C@H](C#N)N(C(=O)C4CCCC4)[C@H]3CO)cc2)cc1 | -2.5 | -3.2 | 0.6
CO[C@H]1CN(C)C(=O)c2ccc(NC(=O)CC(F)(F)F)cc2OC[C@H](C)N(C(=O)c2ccccc2F)C[C@H]1C | -3.8 | -1.6 | -2.2
O=C(NC1CCCCC1)[C@@H]1[C@@H](CO)[C@@H]2Cn3c(cccc3=O)[C@H]1N2CC1CCCCC1 | 9.6 | 10.2 | -0.6
C[C@@H](NC(=O)C[C@@H]1C=C[C@@H](NS(=O)(=O)c2cccc(F)c2)[C@H](CO)O1)c1ccccc1 | -7.3 | -7.4 | 0.1
CC(C)CC#Cc1ccc([C@H]2[C@H]3CN(S(=O)(=O)c4ccc(F)cc4)CCCCN3[C@H]2CO)cc1 | -10.0 | -11.6 | 1.6
C[C@@H]1CN([C@H](C)CO)C(=O)c2cc(C#Cc3cccnc3)cnc2O[C@H]1CN(C)S(C)(=O)=O | 1.6 | -3.4 | 5.0
C[C@@H](NC(=O)[C@H]1[C@H](CO)[C@H]2Cn3c(ccc(-c4ccncc4)c3=O)[C@H]2N1C)c1ccccc1 | 0.0 | 0.2 | -0.2
CCCC#Cc1ccc([C@@H]2[C@H]3CN(C(=O)c4ccc(F)cc4)CC(=O)N3[C@H]2CO)cc1 | 10.6 | 20.2 | -9.5
COc1cccc(C(=O)Nc2ccc3c(c2)C(=O)N(C)[C@H]2CC[C@H](CC(=O)N[C@H](C)c4ccccc4)O[C@H]2CO3)c1 | -3.9 | -6.3 | 2.4
COC(=O)[C@@H]1[C@@H](CO)[C@@H]2Cn3c(cccc3=O)[C@@H]2N1CC1CCCCC1 | 1.7 | 2.2 | -0.5
O=C(c1cccnc1)N1CC(=O)N2[C@H](CO)[C@@H](c3ccc(C#CCC4CCCC4)cc3)[C@H]2C1 | ? | / | /
C[C@H](CO)N1C[C@H](C)[C@@H](CN(C)Cc2ccc3c(c2)OCO3)Oc2cc(-c3cccc(C(=O)N(C)C)c3)ccc2S1(=O)=O | -0.5 | -2.7 | 2.2
CCC(=O)N1[C@@H]2c3ccc(C4=CCCCC4)c(=O)n3C[C@H]1[C@H](CO)[C@H]2C(=O)N[C@H](C)c1ccccc1 | -9.7 | -5.1 | -4.6
O=C(c1cccc(F)c1)N1CCCCN2[C@H](CO)[C@@H](c3ccc(/C=C/c4ccccc4)cc3)[C@@H]2C1 | ? | / | /
C[C@@H]1CCCCO[C@@H](CN(C)Cc2ccc3c(c2)OCO3)[C@H](C)CN([C@@H](C)CO)C(=O)c2cc(NC(=O)CCC(F)(F)F)ccc2O1 | 6.0 | 0.9 | 5.1
O=C(c1cccc(F)c1)N1CCCCN2[C@H](CO)[C@@H](c3ccc(/C=C/c4ccccc4)cc3)[C@H]2C1 | ? | / | /
CO[C@H]1CN(C)C(=O)c2cc(NC(=O)c3ccc(Oc4ccccc4)cc3)ccc2OC[C@H](C)NC[C@@H]1C | ? | / | /
O=C(C[C@H]1C[C@H]2c3cc(NC(=O)c4ccc5c(c4)OCO5)ccc3O[C@H]2[C@@H](CO)O1)NCCc1ccccc1 | 7.1 | 11.1 | -3.9
Additional results:
SMILES | DUX4 txn inh | DUX4 txn inh difference | DUX4 txn inh control
Cc1ccccc1S(=O)(=O)N1[C@H](CO)[C@H](c2ccccc2)[C@@H]1C#N | 1.6 | 0.4 | 1.2
O=S(=O)(N[C@H]1CC[C@H](CCn2cc(Cc3ccccc3)nn2)O[C@@H]1CO)c1ccccc1F | 1.8 | 1.9 | -0.1
COC(=O)C[C@H]1CC[C@H]2[C@@H](COc3ccc(NC(=O)Nc4cc(C)cc(C)c4)cc3C(=O)N2C)O1 | -0.2 | -1.2 | 1.0
COCC(=O)NC[C@H]1N[C@H](CO)[C@@H]1c1ccc(-c2ccccc2)cc1 | -4.8 | -2.5 | -2.4
COc1ccc2c3c(n(C)c2c1)[C@@H](CO)N(Cc1cccnc1)CC31CCN(Cc2cccnc2)CC1 | 6.8 | 5.2 | 1.7
CCC(=O)N1CC[C@@H]2[C@H]1c1cc(-c3ccc(F)cc3)ccc1N(C)[C@@H]2CO | -4.6 | -3.0 | -1.6
O=C(C[C@H]1CC[C@H]2NC[C@@H](O)COC[C@@H]2O1)N1CCc2ccccc2C1 | 1.6 | -4.3 | 6.0
O=S(=O)(c1ccccc1)N1CC2(C1)[C@H](c1ccccc1)[C@H](CO)N2CC1CCCC1 | ? | / | /
CN(C)C(=O)[C@H]1[C@H](CO)[C@H]2Cn3c(ccc(C4=CCCC4)c3=O)[C@@H]1N2CC1CCCCC1 | -6.8 | -5.1 | -1.7
O=C1Nc2ccccc2OCc2cn(nn2)CC[C@H]1Cc1ccc(-c2ccccc2)cc1 | 2.3 | 1.4 | 0.9
CCCN1[C@H](C(=O)OC)[C@@H](CO)[C@@H]2Cn3c(ccc(-c4ccc(F)cc4)c3=O)[C@@H]21 | -2.7 | 1.2 | -3.9
COc1ccccc1S(=O)(=O)N(C)C[C@@H]1Oc2cc(/C=C/c3ccccc3)ccc2S(=O)(=O)N([C@H](C)CO)C[C@H]1C | -0.6 | -1.4 | 0.8
COc1cccc(NC(=O)N2C[C@H](O)COC[C@H]3O[C@@H](CC(=O)NC4Cc5ccccc5C4)CC[C@@H]32)c1 | 4.8 | 3.0 | 1.8
C[C@H](O)C#Cc1ccc([C@H]2[C@@H](CO)N3CCCCN(C(=O)c4ccc5c(c4)OCO5)C[C@@H]23)cc1 | 3.3 | -3.8 | 7.1
O=C(C[C@H]1CC[C@@H]2[C@H](COC[C@H](O)CN2Cc2cccc(F)c2)O1)NCC1CCCCC1 | 4.3 | 4.1 | 0.2
COCC(=O)N1[C@H](CO)[C@H](c2ccc(-c3cccnc3)cc2)[C@@H]1C#N | 5.1 | 3.9 | 1.3
Cc1noc(C)c1NC(=O)N(C)C[C@H]1Oc2c(NC(=O)c3cnccn3)cccc2C(=O)N([C@H](C)CO)C[C@@H]1C | -0.9 | -0.4 | -0.5
CC(C)NC(=O)N1[C@H](CO)[C@@H](c2ccccc2)C12CN(Cc1cc(F)cc(F)c1)C2 | ? | / | /
CS(=O)(=O)N1CC2(C1)[C@H](c1ccccc1)[C@H](CO)N2CC1CCCC1 | -2.0 | 5.2 | -7.2
COc1ccccc1S(=O)(=O)N(C)C[C@H]1Oc2ncc(-c3ccc(C)cc3)cc2C(=O)N([C@H](C)CO)C[C@@H]1C | 1.7 | 0.2 | 1.5
O=C(c1cccnc1)N1CC2(C1)[C@H](c1ccccc1)[C@H](CO)N2Cc1ccncc1 | -3.8 | -11.7 | 7.9
C[C@@H]1CN([C@H](C)CO)C(=O)c2ccccc2-c2ccccc2CO[C@@H]1CN(C)C(=O)[C@@H]1CCCN1C | 4.7 | -4.8 | 9.5
CC(C)COC(=O)N(C)C[C@@H]1OCc2ccccc2-c2ccccc2C(=O)N([C@@H](C)CO)C[C@@H]1C | -8.1 | 2.3 | -10.4

Bioassay records as filed in PubChem BioAssay.

These rows are one share of the data; the hit share may differ from the screen's.
